Anaer choline gr: choline-fed anaerobic bacterial growth inhibition; Gram-negative bacterium anaerobic choline minimal medium, absorbance growth; stronger effect = lower value; many inactives read as strong as hits in the columns shown; calls only; 55,000 tested, 0.2% active; AID 1963822;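 active means growth z-score on choline under -2 at 7 or 20 h with little or no fall on glycerol, limits in tiers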;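 further: stock transfer was 300 nL into about 50 µL; the organism is E. coli; final concentration not given here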
Anaer choline gr early: further read-out of Anaer choline gr, marked with its call; z-score; measured here: choline growth z-score, timepoint 1;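 score of optical density at 7 h as mean of two plates; lower means less growth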
The depositor's hits bear a star; i = inactive; & = joins results of further samples. This is a subset (hit frequency here may not be typical).

Value order: Anaer choline gr	Anaer choline gr early
CCc1ccc(C(C)NC(=O)c2cccc(C3CCCN(C(=O)NC)C3)c2)cc1 (stereo not given)
  i	0.41
O=S(=O)(c1cn(Cc2noc(-c3ccccc3)n2)cn1)N1CCCCC1
  i	-1.9
COc1ccc(CNC(=O)c2cnc(N3CCCC3)nc2)cc1
  i	-2
O=C(CCc1ccncc1)NNC(=O)N1Cc2ccccc2Oc2ccc(Cl)cc21
  i	0.64
O=C(CSc1nccn2nc(-c3ccccc3)cc12)Nc1cc(F)ccc1F
  i	0.33
O=C(NC1CCCC1)N1CCCN(c2nc3cc(Br)ccc3n3cccc23)CC1
  i	-0.14
Cc1nn(-c2ccc3nnc(C)n3n2)c2c1C(c1ccc(Br)cc1)CC(=O)N2 (stereo not given)
  i	0.04
CSc1nc2ccc(NS(=O)(=O)c3ccc(Br)s3)cc2s1
  i	-0.15
Cc1nc(-c2ccc(Cl)c(S(=O)(=O)N3CCCC(C(=O)NC4CCCC4)C3)c2)no1 (stereo not given)
  i	-0.45
CCC1Cn2c(C(=O)N3CCN(c4ccccn4)CC3)cc3c(Cl)ccc(c32)O1 (stereo not given)
  i	0.67
Cn1c(C2CC(=O)N(CC3CC3)C2)nc2ccccc21 (stereo not given)
  i	-0.01
O=C(CCc1nc2sc3c(c2c(=O)[nH]1)CCCCC3)Nc1ccccc1
  i	-0.07
CCn1c(=O)c2sccc2n2c(CCCC(=O)NCCc3c[nH]c4ccccc34)nnc12
  i	0.3
COc1ccc(Cl)cc1N1C(=O)c2ccncc2C1=O
  i	-0.66
Cc1nn(-c2ccccc2)c2ccn(CC(=O)NCc3ccc4c(c3)OCO4)c(=O)c12
  i	-0.36
CC1CCN(c2nc3nonc3nc2N2CCC(C)CC2)CC1
  i	-1.1
FC(F)(F)c1cc(CO[C@H]2CCCN[C@H]2c2ccccc2)cc(C(F)(F)F)c1
  i	-0.16
CC(=O)OC1=C(C)NC(C)=C(OC(C)=O)C1c1ccccc1[N+](=O)[O-]
  i	0.09
CCOC(=O)c1cnn(CCOC(=O)CC(C)C)c1NC(=O)CC(C)C
  i	0.3
CNC(=O)c1ccc(Cn2c(=O)[nH]c3cc(OC)c(OC)cc3c2=O)cc1
  i	0.05
CC(C)NC(=O)c1ccc2c(=O)n(C(C)C)c3nn(CC(=O)NC(C)(C)C)c(=O)n3c2c1
  i	-0.49
Cc1cccc(Cn2cc(C(=O)Nc3ccccc3C(N)=O)ccc2=O)c1
  i	-0.23
Cc1cc(C(=O)Nc2ccc(C)c(C)c2)no1
  i	-0.71
CCCN1C(=O)c2cc(C(=O)NCCC3=CCCCC3)nn2CC1(C)C(=O)NC1CCCC1 (stereo not given)
  i	0.07
Cc1ccc(S(=O)(=O)c2cnc(N3CCN(c4cccc(C)c4)CC3)nc2N)cc1
  i	0.67
CN1CCN(S(=O)(=O)c2ccc3c(c2)CCN3C(=O)CCC(=O)N2CCCC2)CC1
  i	-0.44
S=c1[nH]nc(N2CCCCC2)c2ccccc12
  i	0.63
CCCCN1C(=O)C(C)(C(=O)N2CCN(CC)CC2)Oc2cccnc21 (stereo not given)
  i	0.83
O=C(Nc1ccc(F)cc1)c1ccc(Nc2ccnc(-c3ccc(F)cc3)n2)cc1
  i	-0.15
Cc1ccccc1Cc1c(C)nc2c(-c3nc(-c4ccc(Cl)cc4)no3)cnn2c1C
  i	-0.98
CCC(C)NC(=O)C1CCN(c2ncc(-c3cccc(C)c3)cn2)CC1 (stereo not given)
  i	0.14
CCCCNc1cc(C(C)(C)C)nc2c(-c3ccc(F)cc3)c(C)nn12
  i	0.41
COc1cc(CNCCSc2nnnn2C)cc(Br)c1OCc1ccccc1
  i	0.28
Cc1nc2sccn2c(=O)c1S(=O)(=O)Nc1ccc(CN2CCOCC2)cc1
  i	0.7
Cc1ccc(-c2noc(-c3scc(-c4ccccc4)c3-n3cccc3)n2)cc1
  i	-0.85
COc1cc(Cl)c(NC(=O)C2CCCN(c3nc4cccnc4s3)C2)c(OC)c1 (stereo not given)
  i	-0.4
CN(C)S(=O)(=O)c1ccc(-c2noc(C(=O)NCc3cccnc3)n2)cc1
  i	-1.8
CCC(CC)C(=O)N1CCN(c2nc3cc(Br)ccc3n3cccc23)CC1
  i	0.46
CCOc1ccc(-n2nnc3c(N4CCN(C(=O)CC5CCCC5)CC4)ncnc32)cc1
  i	0.82
Cc1nc(-c2cc(S(=O)(=O)N3CCc4ccccc4C3)c(C)s2)sc1C
  i	1.4
COc1ccccc1OCCNC(=O)Cn1ccc2c(c(C)nn2-c2ccccc2)c1=O
  i	-0.96
CCS(=O)(=O)N1CCC(n2c(C)nc3cccnc32)CC1
  i	-0.3
CC(C)(C)NCC(O)c1cc(O)cc(O)c1 (stereo not given)
  i	-0.24&0.29
O=S(=O)(NCc1nc2cccnc2n1C1CCCCC1)c1ccc2c(c1)CCCC2
  i	-0.4
COc1cccc(NC(=O)CSc2nc(NCc3ccccc3)c3ccccc3n2)c1
  i	-1.4
Cc1ccc(C(=O)N2CCc3cc4cc(C)ccc4nc32)cc1
  i	0.02
CN1CCN(C(=O)Cc2ccc(F)cc2)c2ccccc21
  i	-1.6
CCc1nnc2sc(-c3cc(C)on3)nn12
  i	-0.21
Cn1cc(C(=O)NCCN2CCN(c3ccccc3F)CC2)c2c3ccccc3n(C)c2c1=O
  i	0.23
COc1cc(=O)n(-c2ccccc2)nc1C(=O)NC(c1ccccc1)c1ccccc1
  i	0.19

Going on with the list.
Value order: Anaer choline gr	Anaer choline gr early
CC(C)C(=O)Nc1nnc(Sc2nc3c(c(=O)n(C)c(=O)n3C)n2C)s1
  i	-0.98
Cc1ccc(-c2nc(Cn3nnc(-c4nc(-c5ccccc5Br)no4)c3C)c(C)o2)cc1
  i	-0.8
O=C(NCC1CCN(Cc2ccc(F)cc2)CC1)c1ccc2cccc(O)c2n1
  i	-2.2
COc1ccc(CCNC(=O)c2ccc(CN3CCCn4nc(C)cc43)cc2)cc1OC
  i	-0.42
c1cn(-c2ccc(-c3noc(C4CC4)n3)cn2)cn1
  i	0.32
O=C(CSc1nnc2c3ccccc3nc(-c3ccccc3)n12)N1CCCC1
  i	-1.2
O=C(COc1ccc(F)cc1)Nc1ccc(-c2nc3ccccc3o2)cc1
  i	-0.81
CCOCCCNC(=O)c1ccc(Nc2cc(-c3cccc(C)c3)ncn2)cc1
  i	0.32
Cc1ccc(-c2cc(-c3nc(-c4ccc5c(c4)OCO5)no3)[nH]n2)cc1C
  i	1
COc1cccc(C(=O)Nc2nc(-c3ccc(F)cc3)ns2)c1
  i	0.07
C=CCn1c(=O)c(C(=O)Nc2cccc(C)n2)c(O)c2ccccc21
  i	-0.24
COc1cccc(-c2cc(C(=O)N3CCOCC3)[nH]n2)c1
  i	0.78
O=C(CN1C(=O)C2CCCC2=Nc2ccccc21)Nc1ccc2c(c1)OCO2 (stereo not given)
  i	-0.79
COc1cccc(NC(=O)N2CCC(n3cnc4cccnc43)CC2)c1
  i	-1.4
CCCCNC(=O)C1CCCN(c2ccnc(-c3ccc(F)cc3)n2)C1 (stereo not given)
  i	-0.32
CCc1ccc(NS(=O)(=O)c2c(C)sc(C)c2-c2cc(C(F)(F)F)on2)cc1
  i	-2.2
Cc1ccc(Cl)cc1NC(=O)C1CCCN1S(=O)(=O)c1cc2c(cc1C)NC(=O)CO2 (stereo not given)
  i	0.75
COc1ccc(-c2cc(OC(=O)c3ccccc3C)c3c(C)oc(C)c3c(=O)c2)cc1OC
  i	-0.01
CN(C)c1ccc(NS(=O)(=O)N2CCOCC2)cc1C(=O)O
  i	0.23
Cc1ccc(NC(=O)CCc2nnc3ccc(NCCCc4ccccc4)nn23)cc1
  i	1.4
COc1ccc2c(c1)C=C(C(=O)N1CCN(c3ccccn3)CC1)CO2
  i	0.4
COCC(C)NC(=O)c1cnc2sc(C)c(C)n2c1=O (stereo not given)
  i	-1.2
O=C(c1cc(-c2ccc3c(c2)OCCO3)on1)N(Cc1ccc(F)cc1)C1CCS(=O)(=O)C1 (stereo not given)
  i	0.72
CC(C)(C)c1ccc(OCC(O)Cn2c(CO)nc3ccccc32)cc1 (stereo not given)
  i	-1.6
c1ccc([C@H]2CN3CCSC3=N2)cc1
  i	-0.05&0.66&0.5
COc1ccc(NC(=O)c2cc(C)nc3c2c(=O)n(C)c(=O)n3C)cc1OC
  i	0.33
O=C(Cn1cnc2c(sc3ncccc32)c1=O)NCCc1ccc(Cl)cc1
  i	0.47
Cc1ccc(CN2c3ccccc3-c3nc(SCC(=O)Nc4ccc(C)cc4)ncc3S2(=O)=O)cc1
  i	-0.82
Cc1ccccc1NC(=O)Cn1cc(-c2nnc(CN3CCCCC3)o2)c2ccccc21
  i	0.44
CC(C)(C)C(=O)N1CCCn2nc(-c3ccncc3)cc2C1
  i	1.1

Molecules above with a Cl atom, in the order listed:
Value order: Anaer choline gr	Anaer choline gr early
O=C(CCc1ccncc1)NNC(=O)N1Cc2ccccc2Oc2ccc(Cl)cc21
  i	0.64
Cc1nc(-c2ccc(Cl)c(S(=O)(=O)N3CCCC(C(=O)NC4CCCC4)C3)c2)no1 (stereo not given)
  i	-0.45
CCC1Cn2c(C(=O)N3CCN(c4ccccn4)CC3)cc3c(Cl)ccc(c32)O1 (stereo not given)
  i	0.67
COc1ccc(Cl)cc1N1C(=O)c2ccncc2C1=O
  i	-0.66
Cc1ccccc1Cc1c(C)nc2c(-c3nc(-c4ccc(Cl)cc4)no3)cnn2c1C
  i	-0.98
COc1cc(Cl)c(NC(=O)C2CCCN(c3nc4cccnc4s3)C2)c(OC)c1 (stereo not given)
  i	-0.4
Cc1ccc(Cl)cc1NC(=O)C1CCCN1S(=O)(=O)c1cc2c(cc1C)NC(=O)CO2 (stereo not given)
  i	0.75
O=C(Cn1cnc2c(sc3ncccc32)c1=O)NCCc1ccc(Cl)cc1
  i	0.47

Further entries follow.
Value order: Anaer choline gr	Anaer choline gr early
CN(C)c1ccc(C(CNS(=O)(=O)c2ccc3c(c2)CCCC3)N2CCOCC2)cc1 (stereo not given)
  i	-0.38
O=C(NC1CCCC1)C1CCCN(C(=O)c2cc(-c3ccncc3)n[nH]2)C1 (stereo not given)
  i	-0.68
COc1ccccc1CNc1nc2c(-c3ccccc3)nnn2c2ccccc12
  i	1.2
CN1CCC(OC(c2ccccc2)c2ccccc2)CC1
  i	0.44
O=S(=O)(NCC(c1ccccc1)S(=O)(=O)c1cccs1)c1cccs1 (stereo not given)
  i	1.1
CCC1Oc2cc(S(=O)(=O)N3CCCC(C(=O)N4CCCC4)C3)c(C)cc2NC1=O (stereo not given)
  i	-0.44
O=C(NC1CC1)C1CCCN(c2ccnc(-c3ccccc3)n2)C1 (stereo not given)
  i	-0.76
CC1(C)CS(=O)(=O)N(c2ccc(C(=O)N3CCCC3)cc2)C1=O
  i	0.36
CC(C)NC(=O)C1CCCN(c2ncnc3c2oc2ccccc23)C1 (stereo not given)
  i	0.24
C=CCn1c(=O)c(=O)n(Cc2ccc(C(=O)NCc3ccc(CC)cc3)cc2)c2ccccc21
  i	-0.72
CCNS(=O)(=O)c1c(C)[nH]c(C(=O)OCC)c1C
  i	0.33
O=c1cc(-c2ccccc2)oc2cc(O)cc(O)c12
  i	1.3
CC(C(=O)N(C)C)N1C(=O)CCCc2ccccc21 (stereo not given)
  i	0.2
O=C(c1ccccc1Br)N1CCc2nc(-c3ccccc3)sc2C1
  i	-0.75
Cn1cc(S(=O)(=O)N2CCOCC2)cc1C(=O)Nc1ccccc1
  i	0
CCN(CC)S(=O)(=O)c1ccc2c(c1)cc(C(=O)NCCc1cnc[nH]1)n2C
  i	0.3
CCc1nc(SCc2noc(CCC(=O)Nc3ccc4c(c3)Cc3ccccc3-4)n2)n[nH]1
  i	-0.46
O=C(Nc1ccc(-c2ccccc2)cc1)c1ccccn1
  i	1.6
O=C(c1cnc2ccc(F)cc2c1Nc1ccc(F)cc1)N1CCCCC1
  i	0.41
Cc1noc2ncn(CC(=O)N3CCCCC3)c(=O)c12
  i	0.65
CC(C)Cn1c(=O)c2c(nc3n2CCS3)n(C)c1=O
  i	0.67
Cc1cc(N2CCN(C)CC2)nc2ccc(NC(=O)Nc3ccc(F)cc3)cc12
  i	-0.55
Cc1sc(-c2noc(C3CCC3)n2)cc1NC(=O)c1cc2ccccc2[nH]1
  i	-0.94
COc1cc2c(=O)n(Cc3ccc(C(=O)NC4CCCC4)cc3)c(=O)n(Cc3ccccc3Cl)c2cc1OC
  i	-1.1
Cc1cc(C)cc(N2C(=O)c3cc(C)nn3CC2(C)C(=O)NCc2ccc(F)cc2)c1 (stereo not given)
  i	1.8
Cc1oc2ncnc(N3CCCC(C(=O)Nc4ccccc4Br)C3)c2c1C (stereo not given)
  i	-0.14
O=C(c1ccc2cnn(Cc3cccc(Cl)c3)c2c1)N1CCN(c2ccc(F)cc2)CC1
  i	0.17
Cc1sc(-c2noc(C(C)C)n2)cc1S(=O)(=O)N1CCCC(C(=O)NC2CCCCC2)C1 (stereo not given)
  i	-2.1
C#CCSc1n[nH]c2nc3ccccc3n12
  i	-0.15
CC(C)c1cc(C2CCCN2S(=O)(=O)c2ccc(Br)s2)no1 (stereo not given)
  i	-0.95
Cc1ccc(N2C(=O)CN(Cc3cccnc3)[C@H]3CS(=O)(=O)C[C@H]32)cc1
  i	-0.16
Cc1cc(C)c(C)c(S(=O)(=O)Nc2ccc(-c3nnc(-c4ccccc4)o3)cc2)c1
  i	-1.8
CCN(C(=O)CSc1nnc(-c2cccnc2)o1)c1ccccc1
  i	-0.87
O=C(c1cc2cc(Cl)ccc2[nH]1)N1CCN(C(=O)C2CCC2)CC1
  i	-0.24
O=C(CCc1nc(-c2cccnc2)no1)Nc1ncccc1O
  i	0.17
O=C1CCN(C(=O)C2CC2)c2ccccc2N1
  i	-2.2

Screening results as filed in PubChem BioAssay.
